Screening results as filed in PubChem.
Sfp inh – inhibitors of Bacillus subtilis Sfp phosphopantetheinyl transferase; Biochemical Sfp PPTase activity, qHTS; Potency, µM, for inactives: max response, negative = inhibition, actives largely listed as inhibitors; 310,000 tested, 3.5% active; Q9F4F7; active = well fitted inhibition curve with a large enough effect; inconclusive = small, poorly fitted or top-dose-only effect, or another doubt; inactive = no such curve, though single readings can be large or run the other way;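 also: the enzyme is Sfp with the accession as filed and its product quenches rhodamine fluorescence; potency is read from the fitted curve at half-maximal effect; 0% = enzyme reaction without inhibitor and -100% = no enzyme wells; top concentration of the series not given in the record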
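After 15 min at room temperature with compound, 15 nM Sfp received 5 uM rhodamine-CoA plus 12.5 uM BHQ-2-ybbR (50 mM Hepes pH 7.6, 10 mM MgCl2). Rate came from the fluorescence difference over 30 min, ex 525/em 598 nm.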
TRPV1 PAM – enhances activation of the human vanilloid receptor TRPV1 | TRPV1-expressing cells, Fluo-8 calcium influx, capsaicin EC20 potentiation; host cell line not named in the record; control for the full effect not named in the record | potentiation, % at 8.33 µM | 320,000 tested, 0.02% active | AID 540277; active means potentiation above 80%; inconclusive means 30% to 80%; inactive means below 30%; also: 0% is about no effect
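Cells expressing TRPV1 were dye-loaded with Fluo-8 and read kinetically: 10 s baseline, 3 min after compound (agonist portion), then 2 min after EC20 capsaicin (allosteric enhancer portion). Calcium-bound dye fluorescence at 480/520 nm.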
PINK1 modulator – changes PINK1 expression; PINK1 immunofluorescence, high-content cytometry, 24 h; Potency, µM (top dose mostly 76.6 µM), inactives show top-dose activation (PINK1 increase), actives largely listed as activators; 410,000 tested, 0.2% active; active = well fitted activation curve with a large enough effect; inconclusive = small, poorly fitted or top-dose-only effect; inactive = flat fitted curve, though single readings scatter; cell line not stated here;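 also: potency is read from the fitted curve at half-maximal effect; % of control where 0% means no effect; nearly all actives have a fitted effect of over 65% in size; a mitochondrial uncoupler was the plate control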
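Decision-based qHTS: stable cells, 24 h exposure to five compound concentrations, CCCP as control. Fixed cells stained for PINK1 plus nuclear, mitochondrial and cell markers, cytometer read.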
TRPML1 blocker – inhibitors of human TRPML1 channel; Q9GZU1; TRPML1-inducible cells, Ca2+ dye fluorescence, FDSS; hits give low values; inhibition of EC80 agonist-evoked calcium signal; activity change, negative = inhibition, % (concentration not given with the values); 390,000 tested, 0.02% active; in the data active means activity change below about -50%; inconclusive means about -30% to -50%; inactive means above about -30%;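 also: stimulus is agonist 54-4 at its EC80 concentration; % is scaled to controls: 0 for no effect and ±100 for the full control effect; compound concentration not given in the record; the text of the record puts the active cut at -80%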
Target sequence (Q9GZU1 whole entry, looked up): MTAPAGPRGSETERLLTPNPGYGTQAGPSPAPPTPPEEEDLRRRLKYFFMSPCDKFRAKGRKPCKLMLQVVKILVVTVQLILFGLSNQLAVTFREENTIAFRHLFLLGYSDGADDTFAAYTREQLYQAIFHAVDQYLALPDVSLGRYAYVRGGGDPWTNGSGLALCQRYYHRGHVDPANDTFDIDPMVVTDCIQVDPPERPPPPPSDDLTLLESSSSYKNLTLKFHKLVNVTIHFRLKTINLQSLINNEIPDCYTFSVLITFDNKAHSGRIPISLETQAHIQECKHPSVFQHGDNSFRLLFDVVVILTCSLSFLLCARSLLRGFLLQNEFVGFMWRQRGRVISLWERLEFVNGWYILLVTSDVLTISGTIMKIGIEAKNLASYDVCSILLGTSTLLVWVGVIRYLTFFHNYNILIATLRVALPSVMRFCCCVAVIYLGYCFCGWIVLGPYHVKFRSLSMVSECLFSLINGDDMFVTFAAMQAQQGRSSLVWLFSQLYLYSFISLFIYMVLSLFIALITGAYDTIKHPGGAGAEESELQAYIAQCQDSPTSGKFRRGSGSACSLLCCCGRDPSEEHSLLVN
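TRPML1-DL cells, Tet-induced overnight (~16 h, 37 °C) at 1,500 cells/well, were loaded with Ca8 no-wash dye plus quencher for 45-90 min at room temperature. Compounds were pinned during FDSS kinetic reading; agonist 54-4 at EC80 (4 uM final) then added.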
ClpP mod – qHTS Assay for Activators of ClpP. purified B. subtilis ClpP, FRET peptide cleavage, 20 min. Potency, µM (doses to about 57.5 µM), for the others: at the top dose activity change, negative = active. 340,000 tested, 1.9% active. AID 651965, 2013; active = well fitted falling curve with a large enough effect; inconclusive = small, poorly fitted or top-dose-only effect; inactive = no such curve, though single readings can be large or run the other way; also: potency is read from the fitted curve at half-maximal effect; the source files actives as falling curves though it sought activators and does not explain the sign; nearly all actives have a fitted effect of over 65% in size; many hits overshoot -100%
Target sequence (P80244 whole entry, looked up): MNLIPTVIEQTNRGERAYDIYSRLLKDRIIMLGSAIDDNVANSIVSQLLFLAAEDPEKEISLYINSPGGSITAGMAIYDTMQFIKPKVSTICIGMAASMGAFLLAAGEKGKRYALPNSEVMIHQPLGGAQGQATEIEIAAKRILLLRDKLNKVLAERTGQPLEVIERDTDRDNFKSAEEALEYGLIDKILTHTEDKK
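FRET quenching reversal measured ClpP activation: 10 microg/mL B. subtilis ClpP at pH 8 with the FRET-FV decapeptide, read at 430 nm after 320 nm excitation. The 20-min minus 0-min signal was scaled between DMSO/no-enzyme wells and ADEP (5.8 microM final).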
Menin-MLL FL inh – menin-MLL binding inhibition, fluorescein peptide | FP activity change, % at 61.4 µM | 290,000 tested, under 10 active | Fluorescence polarization, fluorescein-MLL peptide displacement from menin | AID 1766; inconclusive = falling polarisation curve, or a change in total fluorescence; inactive = total fluorescence flat and polarisation flat or rising; no compound was filed as active; the % refers to the polarisation; negative = inhibition;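 also: % of control where 0% means no effect; inhibitors lower the polarisation; unlabelled MLL peptide was the positive control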
TRPML1 ag – agonists of human TRPML1 channel | Q9GZU1 | 410,000 tested, 0.12% active | activation, % (test concentration not listed) | TRPML1-expressing cells, Ca2+ dye fluorescence, FDSS; host cell line not named in the record; reference of the full effect not given here; in the data active = activation above about 50%; inconclusive = about 30% to 50%; inactive = below about 30%; also: 0% is about no effect; the text of the record puts the active cut at 80%
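Cells: TRPML1-DL, 1X Tet inducer, ~16 h at 37 degrees C/5% CO2. Dye: ABD Ca8 no-wash + quencher, 45-90 min RT. Read: 10 s baseline, compound add, 110 s agonist phase; 54-4 EC80 (4uM final), 110 s antagonist phase.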
* marks the source's active call; other numbers are inactive results; ? = inconclusive; . = no result given; & = joins results of further samples; [ ] = dose if it differs, or a comment.

SMILES	Sfp inh	TRPV1 PAM	PINK1 modulator	TRPML1 blocker	ClpP mod	Menin-MLL FL inh	TRPML1 ag
CCc1nc2ccccc2c(=O)n1NC(=O)c1c(O)c2ccccc2n(CC)c1=O	16%	3	1.2%	7	-1.1%	-1.6	1.5
C=CCNC(=S)N1CCN(C2CCCCC2)CC1	11%	3	0.7%	8	.	2.0	-0.1
CC1CCN(CC(=O)Nc2ccccc2C#N)CC1	19%	-5	3.3%	11	0.8%	-0.3	0.6
CC(=C/c1ccco1)/C=N/NC(=O)CSc1nnc(SCc2ccc(C)cc2)s1	?	4	13%	30	-4.1%	4.1	3.2
O=C(NCCCO)C12CC3CC(CC(C3)C1)C2	.	.	2.7%[38.3 µM]	6	-3.4%	.	0.5
CCCOc1ccc(-c2c(C(=O)N/N=C(\C)c3cccs3)nnn2-c2nonc2N)cc1	19%	6	1.7%	0	-9.6%	.	-0.4
COc1ccc(OCc2ccc(-c3nc(C#N)c(NCc4ccc(F)cc4)o3)o2)cc1	.	.	2.3%	-4	32µM*	.	0.0
CCNC(=O)COC(=O)CCC(=O)c1cccs1	-18%	-5	-0.2%	-9	-2.4%	-0.7	0.3
COC(=O)c1ccc(-c2noc(CN3CCCC(CNC(C)=O)C3)n2)cc1 (configuration not stated)	3%	15	1.0%	-1	.	-0.1	-0.8
CS(=O)(=O)c1nc(S(=O)(=O)c2ccc(Cl)cc2)c(N2CCOCC2)s1	7%	-11	-1.0%	-21	-0.9%	.	0.2
COc1ccc(Br)c(C(=O)NNC(=O)c2ccc(NS(=O)(=O)c3cccs3)cc2)c1	.	6	0.5%	-23	?	.	1.1
O=C(COC(=O)c1ccc(F)c(S(=O)(=O)N2CCOCC2)c1)c1ccc(Br)cc1	.	7	-0.2%	3	-2.5%	.	-0.4
O=C(COc1ccc(Br)cc1)Nc1cccc2cccnc12	.	.	-0.3%	15	-4.4%	.	3.0
O=C(Cc1ccc(S(=O)(=O)N2CCOCC2)s1)OCc1ccc(Cl)cc1	.	-11	-0.7%	-11	-1.1%	.	-0.5
CCn1ncc(Br)c1C(=O)Nc1ccccc1C(=O)OC	.	.	-1.7%	2	0.1%	.	2.0
COc1ccccc1[C@]1(C)ON(c2ccccc2C(F)(F)F)C1=O	.	3	-0.8%	19	-1.2%	.	-0.4
Cc1ccnc(NCn2nnc3ccccc32)c1	23%	1	4.5%[38.3 µM]	3	-5.8%	2.1	0.9
O=C(N/N=C/c1ccc([N+](=O)[O-])o1)C(=O)Nc1ccc(C(=O)O)cc1	-11%	.	-0.3%	.	1.3%	2.8	.
CCN1CCN(CC(=O)Nc2ccc(N(C)C)cc2)CC1	13%	-2	0.5%	-5	-2.2%	-0.8	1.4
CCN(CC(=O)N1CCCCCC1)S(=O)(=O)c1ccc(C)cc1	13%	21	0.7%	14	-1.4%	-2.8	-0.3
CCOC(=O)C(=O)Nc1ncc(Cl)s1	13%	5	-1.1%	10	.	5.6	0.9
CCc1nc2c(OCc3ccc(F)cc3)cccn2c1N(C)C(=O)CC(C)C	.	.	4.9%	.	-2.2%	.	-0.3
CCCCCCCN(C(=O)CCl)c1ccccc1C	8%	-3	7.6%	7	2.0%	0.1	2.9
COc1ccccc1NC(=O)c1ccc(CSc2ccccc2)o1	-1%	-10	0.2%	-5	-9.8%	.	-0.1
COC(=O)c1[nH]c2ccccc2c1NS(=O)(=O)c1ccc(OC)cc1OC	15%	3	1.7%[38.3 µM]	4	-0.8%	4.6	-0.6
O=C(O)c1ccc(-n2c(/C=C/c3ccccc3)nc3ccccc3c2=O)cc1	8%	-24	1.6%	23	-0.7%	-16	0.7
COc1ccc(C(=O)N/C(=C\c2ccccc2)C(=O)NCc2cccnc2)cc1	14%	11	-2.4%	-16	.	-0.7	0.4
Cc1cc(NCc2ccco2)nc2cc(O)ccc12	-3%	3	2.0%	0	4.1%	0.7	-0.2
Cc1ccc(N(C(=O)c2csnn2)C(C(=O)NC2CCCCC2)c2ccccn2)cc1 (configuration not stated)	25%	-6	0.7%	1	-2.5%	2.2	-1.3
CCN(CC)C(=O)c1ccc(/C=C/c2c[nH]c3ccccc23)[n+](C)c1	-17%	13	2.7%	-8	-22%	?	12
CC(C(=O)Nc1ccccc1C(F)(F)F)N1CCN(C)CC1 (configuration not stated)	-20%	-13	3.7%	.	0.6%	-0.5	.
O[C@@H]1CN(Cc2cccs2)[C@@H](c2ccc(Cl)cc2)C[C@H]1n1cc(C2CC2)nn1	.	.	2.3%	41	-0.6%	.	0.7
NC(=O)C1CCN(c2ccc([N+](=O)[O-])cc2Cl)CC1	6%	-15	0.3%	35	.	2.7	-0.2
CN(C)CCCN(Cc1cc2cc3c(cc2[nH]c1=O)OCCO3)C(=O)NC1CCCCC1	19%	2	1.0%	7	3.2%	2.3	1.3
COc1ccc(-n2c(SCC(=O)Nc3cc(C)on3)nc3c(c2=O)SC(C)C3)cc1 (configuration not stated)	.	.	1.1%	8	-3.1%	.	0.2
CCOC(=O)C1=C(CN2CCN(c3ccccc3OC)CC2)NC(=O)NC1c1ccccc1 (configuration not stated)	.	.	0.1%	5	1.9%	.	-1.5
COc1ccc(CC(=O)N/N=C/c2cccn2-c2ccc([N+](=O)[O-])cc2)cc1OC	56µM*	-22	1.9%	-14	-1.3%	-1.2	0.3
Cc1cc(F)ccc1NC(=O)C(C(C)C)N1Cc2ccccc2C1=O (configuration not stated)	.	.	0.2%	-5	-0.3%	.	-0.6
O=C1c2ccccc2C(c2nnnn2-c2ccc3c(c2)OCCO3)N1Cc1ccc(F)cc1 (configuration not stated)	.	.	6.6%	.	0.5%	.	0.1
CCOC(=O)N1CCC(N2Cc3cccc(C(=O)Nc4cccc(F)c4)c3C2=O)CC1	-19%	-4	-0.8%	-25	.	-4.6	1.0
NC(=O)NC(=O)COC(=O)CCSc1ccccc1	4%	-19	1.6%	-10	.	-4.4	-0.2
CCN1CCN(C(=O)/C=C/c2ccc(F)cc2)CC1	.	.	-0.1%	-4	.	.	-0.2
CCN(C[C@H]1N[C@@](Cc2ccccc2)(C(=O)OC)[C@H]2C(=O)N(Cc3ccccc3)C(=O)[C@@H]12)C(=O)COc1ccccc1	.	.	2.0%	13	1.5%	.	1.6
O=C(NC1CCCCCCC1)c1ccccc1-c1ccccc1	14%	-8	7.6%	-10	-1.8%	6.7	2.8
CC(NS(=O)(=O)c1ccc(OCC(=O)N2CCOCC2)c(Cl)c1)c1ccccc1 (configuration not stated)	2%	-14	-0.1%	-22	0.6%	2.8	0.4
Cc1cc(C)n(-c2nc(NCC3CCCO3)c3c4c(sc3n2)COC(C)(C)C4)n1 (configuration not stated)	-2%	-5	3.3%	-16	64%	-2.1	0.4
COc1ccc(OC)c(-c2noc(N3CCN(c4ccc(Cl)cc4)CC3)n2)c1	.	.	0.9%	0	-6.3%	.	1.2
COC(=O)CCC(=O)Nc1cc(S(=O)(=O)Nc2ccc(Cl)cc2)ccc1N1CCOCC1	-16%	4	0.9%	-7	-0.9%	0.4	0.2
CCN1C(=NCCc2cccnc2)N[C@@H](c2ccccc2)C(C(=O)OC)=C1C	1%&5%	-15&-10	-0.4%	7	-0.5%	-2.1&-3.9	-0.1
CC(=O)OC[C@H]1O[C@@H](n2ncc(=O)[nH]c2=O)[C@H](OC(C)=O)[C@@H]1OC(C)=O	9%&-1%	-5	-0.7%	19	-2.2%	-0.6&-0.5	0.6
O=C(NC1CCCCC1)C1CCCN1C(=O)NCc1ccccc1 (configuration not stated)	-3%	5	3.0%	-8	-1.9%	2.2	-0.1
COc1ccc(N2CCN(C(=O)CCNC(=O)c3ccccc3)CC2)cc1	6%	-17	0.4%	-16	-3.9%	-2.7	0.2
O=C1c2ccccc2C(O)N1c1ccccc1 (configuration not stated)	-3%	-1	0.7%	11	-15%	1.0	0.8
CCc1ccc(-n2cccc2/C=C2/C(=N)N3C(=NC2=O)SN=C3S(C)(=O)=O)cc1	1%	10	3.1%	20	-0.9%	?	-0.8
C[C@H](CO)N1C[C@H](C)[C@@H](CN(C)S(=O)(=O)c2ccccc2)Oc2ccc(NC(=O)Nc3ccc4c(c3)OCO4)cc2C1=O	.	.	0.7%	6	-1.7%	.	-0.3
C=CC[C@H](CC(=O)N[C@H](CO)Cc1ccccc1)C(=O)N[C@H](COC(=O)[C@@H](CC=C)CC(=O)OC(C)(C)C)Cc1c[nH]c2ccccc12	.	.	8.6%	14	1.7%	.	0.7
CC(=NNC(N)=O)C1CC2CCC1CC2 (configuration not stated)	.	.	-0.3%	10	-3.1%	.	0.0
Cc1ccc(NC(=O)N2C(=O)C3(OCCO3)c3ccccc32)cc1	5%	-24	-0.3%	8	0.8%	0.6	0.1
O=C(O)COc1ccc(=O)n(-c2ccccc2)n1	23%	-9	2.0%	-6	4.6%	4.0	-0.5
NC(=O)c1cc([N+](=O)[O-])ccc1NCc1ccc(F)cc1	.	-27	4.6%	26	-0.1%	.	0.5
New compounds follow.
SMILES	Sfp inh	TRPV1 PAM	PINK1 modulator	TRPML1 blocker	ClpP mod	Menin-MLL FL inh	TRPML1 ag
Cc1ccc(S(=O)(=O)N2C[C@H]3C(=O)C[C@@H](c4ccccc4)N(S(=O)(=O)c4ccc(Br)cc4)[C@H]3C[C@H]2c2ccccc2)cc1	.	.	2.7%	59	-9.3%	.	0.4
O=S(=O)(c1ccc(Br)cc1)c1nc(-c2ccccc2)oc1N1CCOCC1	-5%	14	1.5%	9	-5.1%	.	0.6
Cc1ccc(CSc2nc3ccc(NC(=O)COc4ccccc4)cc3s2)cc1	.	.	1.4%	-4	-1.5%	.	-0.6
CCN(CC)CCn1c(=N)n(CCOc2ccccc2Cl)c2ccccc21	.	.	-1.4%	43	1.1%	.	0.8
CN(C)c1ccc(C=NCC2COc3ccccc3O2)cc1 (configuration not stated)	19%	6	1.5%	13	-6.6%	0.4	2.9
COc1ccc(CNc2cccc3[nH]c(C(F)(F)F)nc23)cc1OC	?	0	25µM*	6	-9.1%	-2.0	-0.2

Two entries drawn at random from those above:
SMILES	Sfp inh	TRPV1 PAM	PINK1 modulator	TRPML1 blocker	ClpP mod	Menin-MLL FL inh	TRPML1 ag
Cc1ccc(S(=O)(=O)N2C[C@H]3C(=O)C[C@@H](c4ccccc4)N(S(=O)(=O)c4ccc(Br)cc4)[C@H]3C[C@H]2c2ccccc2)cc1	.	.	2.7%	59	-9.3%	.	0.4
O=S(=O)(c1ccc(Br)cc1)c1nc(-c2ccccc2)oc1N1CCOCC1	-5%	14	1.5%	9	-5.1%	.	0.6
